Screening data deposited in PubChem BioAssay by Southern Research Institute.
Mtb growth: Confirmatory growth inhibition assay against Mycobacterium tuberculosis H37Rv, potency (AID 1949); 100,000 compounds, 1.6% hits; one-dose inhibition, % at 10 µg/mL; IC50 in µg/mL for titrated hits; most inactive calls were filed without a number and no value below 0 was filed;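 active = confirmed in a dose series; inconclusive = about 50% or more but not retested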;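 note: bacteria grown 7 days with compound before Alamar blue readout; 0% = untreated bacteria and 100% = reference antibiotic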
The depositor's hits bear a star; i = inactive; ? = inconclusive. An excerpt; rates above refer to the full screens.

structure	Mtb growth
Cc1ccc(C(=O)NC(NC(=S)Nc2ccccc2Br)C(Cl)(Cl)Cl)cc1 (stereo not given)	i
CC(=O)Nc1ccc(NC(=O)c2cccs2)c(C)c1	i
O=C(CC(c1ccccc1)c1ccccc1)Nc1c(Cl)cccc1Cl	27.1%
CC(=O)c1ccc(NC(=O)N2CCN(Cc3ccc(C)cc3)CC2)cc1	i
O=C(COc1ccc(Cl)cc1)N1CCN(C(=O)c2ccncc2)CC1	i
CN(c1ccc(C(=O)NCc2ccccn2)cc1)S(C)(=O)=O	i
CCOC(=O)C1=C(C)NC(C)=C(C(=O)OCC)C1c1cc(OC)c(OCC)cc1Br	12.4%
COC(=O)c1ccc(C(=O)OC)c(NC(=O)CCc2ccc(C)o2)c1	1.2%
Cc1cc(NS(=O)(=O)c2ccc(NC(=O)CCN3C(=O)c4ccccc4C3=O)cc2)no1	i
COc1cc(NC(=O)C(C)Oc2ccc(C(C)(C)C)cc2)c(OC)cc1Cl (stereo not given)	1.4%
Cc1cc2oc(C(=O)Nc3sc4c(c3C#N)CCCC4)c(C)c2cc1C	i
Cc1cccc(N2CCN(C(=O)C(Cl)(Cl)Cl)CC2)c1C	4.3%
O=C(CCN1CCC(c2ccccc2)C1)c1ccco1 (stereo not given)	i
Cc1ccc(NNC(=O)C(c2ccccc2)c2ccccc2)cc1	i
Nc1cccc(S(=O)(=O)N2CCCC2)c1	i
COCCCNC(=S)N1CCN(S(C)(=O)=O)CC1	1.5%
CCCOc1c(Cl)cc(C(=O)N2CCOCC2)cc1OCC	i
CCOCC(O)CS(=O)(=O)c1ccccn1 (stereo not given)	5.3%
CC(=O)Nc1ccc(NCc2ccc(-c3ccccc3)cc2)cc1	i
O=C(c1ccco1)N1CCn2c1nc1ccccc12	i
Cc1ccc(S(=O)(=O)c2nc(S(=O)(=O)c3ccc(C)cc3)c(NCc3ccco3)s2)cc1	7.3%
CC(C)(C)c1ccc(S(=O)(=O)NCc2ccc(C(=O)O)cc2)cc1	2.8%
C=CCOc1c(Br)cc(CNCCCN2CCOCC2)cc1OC	2.5%
CC(=O)Cc1nsc(NC(=O)c2csc3c2CCCC3)n1	2.7%
COc1ccc(-c2nc(Nc3nc4ccccc4o3)ncc2C#N)cc1	?
C=CCn1c(SCC(=O)Nc2cccc([N+](=O)[O-])c2)nnc1-c1ccccc1O	i
Cc1cccc(-n2c(SCC(=O)O)nc3sc4c(c3c2=O)CCCC4)c1	i
Cc1sc(NC(=O)COc2ccc(Cl)cc2Cl)c(C#N)c1C	3.8%
O=C(Nc1ccc(F)cc1)c1cccc(Oc2ccc([N+](=O)[O-])cc2C(F)(F)F)c1	4.1%
O=C(CSc1ncc(-c2ccccc2)nn1)Nc1ccc(I)cc1	i
Cc1cc(NC(=O)CN2C(=O)CN(c3ccc(Br)cc3)C2=O)no1	i
CCCOc1cc(CC(=O)NCc2ccco2)ccc1OC	i
COc1cc2ccccc2cc1C(=O)NC(=S)Nc1ccc(C(=O)O)cc1	i
COc1ccc(C(=O)Nc2ccccc2)cc1Cl	i
CC(=O)NCCCc1nc2ccccc2n1Cc1ccccc1Cl	i
CCOC(=O)c1sc(NC(=O)c2c(OC)cccc2OC)c(C(=O)OCC)c1C	i
CCc1ccc2oc(-c3ccc(NC(=O)CCc4ccccc4)cc3)nc2c1	1.1%
Cc1c(Cl)cccc1NS(=O)(=O)c1cccs1	0.1%
O=C(Nc1sc2c(c1C(=O)NC1CCS(=O)(=O)C1)CCCC2)c1ccccc1[N+](=O)[O-] (stereo not given)	i
CCn1c(SCCC#N)nnc1-c1ccncc1	i
COc1cccc(OCCCCN2CCCCC2)c1	i
CCCOc1ccc(C(=O)NC(=S)Nc2cc(-c3nc4ccccc4s3)ccc2C)cc1	3.9%
CCOC(=O)C(=O)Nc1nc(-c2ccccc2)c(CC)s1	i
c1ccc(-c2nnc(-c3cccc(-c4nnc(-c5ccccc5)o4)c3)o2)cc1	i
CCOC(=O)c1cnc(Nc2nc3ccccc3o2)nc1C	?
Clc1ccc(C2=CC(c3ccccc3Cl)n3nnnc3N2)cc1 (stereo not given)	i
CN1CCN(CCCCOc2ccc(Cl)c(Cl)c2)CC1	i
COc1cccc(NC(=O)CN(Cc2ccc(Cl)cc2)S(=O)(=O)c2ccccc2)c1	6.8%
Cc1ccc(Cl)cc1NC(=O)C1CCN(S(C)(=O)=O)CC1	i
NC(=O)c1ccsc1NC(=O)c1cc(-c2ccccc2)nc2ccccc12	i
Cc1cc2oc(C(=O)NCCc3ccc(S(N)(=O)=O)cc3)c(C)c2cc1C	i
N#CCCN(CCC#N)C(=O)CN1C(=O)c2ccccc2C1=O	i
Cc1ccc(S(=O)(=O)N(CC(=O)Nc2ccccc2F)c2ccc(Br)cc2)cc1	i
Cc1ccnc(NC(=O)Nc2ccc(F)c(Cl)c2)c1	i
C=CCOc1c(Cl)cc(CNC(C)(C)C)cc1OC	i
N#Cc1ccc(CSc2nnc(-c3cccs3)n2-c2ccccc2)cc1	i

Going on with the list:
structure	Mtb growth
NC(=O)Cn1cc(C(=O)C2CC2)c2ccccc21	i
CC(O)CNc1ncnc2sc(-c3ccccc3)cc12 (stereo not given)	i
COC(=O)c1c(NC(=S)Nc2c(C)nn(Cc3c(F)c(F)c(F)c(F)c3F)c2C)sc(C)c1-c1ccccc1	i
CCN(C(=O)CSc1nc2ccccc2[nH]1)c1ccccc1	i
Cc1cccc(C)c1NC(=O)c1ccccc1N	2.9%
COc1ccccc1N(CC(=O)NCC1CCCO1)S(=O)(=O)c1ccc(C)cc1 (stereo not given)	i
Cc1cc(OCCCN2CCOCC2)ccc1[N+](=O)[O-]	i
CCOc1cc(O)c(-c2n[nH]c(C)c2Oc2ccc(F)cc2)cc1CC	10.5%
Clc1ccc(N2CCN(N=Cc3ccncc3)CC2)cc1	i
CCOc1cc(S(=O)(=O)N2CCN(c3cccc(Cl)c3)CC2)c(C)cc1C	i
COc1ccc(C(NC(=O)C(C)C)c2cc([N+](=O)[O-])c3cccnc3c2O)cc1 (stereo not given)	3.9%
O=C(CSCC(=O)N1CCN(c2ccccc2)CC1)Nc1ccc2ccccc2c1	i
COc1ccccc1N1C(=O)CC(SCC(=O)Nc2ccccc2)C1=O (stereo not given)	i
Cc1cc(C)nc(SCC(=O)Nc2ccc(F)c(F)c2F)n1	i
CC(=O)OC1c2c(ccc3ccc(=O)oc23)OC(C)(C)C1OC(=O)CC(C)C (stereo not given)	4.7%
O=C(CCC(=O)c1ccc(F)cc1)Nc1cccnc1	i
CCCc1cc(C(=O)OC)c(NC(=O)c2cc3ccccc3oc2=O)s1	39.4µg/mL*
Cc1ccc(N2CC(C(=O)NC(C)(C)C)CC2=O)cc1 (stereo not given)	i
O=C(Nc1c(F)c(F)c(F)c(F)c1F)C(c1ccccc1)c1ccccc1	i
CSc1nsc(NC(=O)Cc2ccccc2)n1	i
CCOC(=O)c1sc(NC(=O)C2C3C=CC(C3)C2C(=O)O)nc1C (stereo not given)	i
CCOC(=O)C(=O)N(CCC#N)CCC#N	i
Cc1ccc2cccc(NC(=O)c3sc4ccccc4c3Cl)c2n1	i
CCc1sc(C(=O)NC2=NCCS2)cc1Br	6.7%
CC(=O)Nc1nc(-c2cc(C)ccc2C)cs1	6.6%
CCCCOc1ccc(NC(=O)CCCOc2ccc(OC)cc2)cc1	29.2%
Cc1ccc(Cl)c(OCC(O)Cn2c(Cc3ccccc3)nc3ccccc32)c1 (stereo not given)	7.8%
COc1ccc([N+](=O)[O-])cc1NC(=O)CCSc1ccc(C)cc1	i
O=C(NCc1ccc(Cl)cc1)C1CC1c1ccccc1 (stereo not given)	i
CCN(C(=O)c1cc(C(=O)OC)cc([N+](=O)[O-])c1)c1ccccc1C	0.6%
CCN1C(=O)C(CC(=O)Nc2ccc(Cl)cc2)N(NC(=O)Cc2ccc(OC)cc2)C1=S (stereo not given)	i
O=C1c2ccccc2S(=O)(=O)N1CC(O)COc1ccc(Cl)cc1Cl (stereo not given)	i
CCOc1cc(CNCCO)ccc1OCC(=O)NC(C)(C)C	i
COC(=O)c1sc(NC(=O)C(C)c2ccccc2)nc1C (stereo not given)	i
COc1ccc(S(=O)(=O)N2CCCc3ccccc32)cc1Cl	i
COc1ccc(N(CC(=O)Nc2ccccc2C(=O)NC2CCCCC2)S(C)(=O)=O)cc1OC	i
CC(=O)c1cccc(NC(=O)c2ccc(N(Cc3ccccc3Cl)S(C)(=O)=O)cc2)c1	i
CC(C)C1Cc2[nH]c(=O)c(C(=O)O)cc2CO1 (stereo not given)	i
COc1ccc(CCC(=O)Nc2ccc3c(c2)OCO3)cc1	i
COc1cc(OC)cc(C(=O)Nc2ccccc2C(C)(C)C)c1	i
O=C1c2cccc3cccc(c23)C(=O)N1CCCC(=O)n1nnc2ccccc21	i
CN(Cc1ccccc1)C(=S)NC(=O)c1cccs1	0.74µg/mL*
C=CCn1c(SCC(=O)c2cccc([N+](=O)[O-])c2)nnc1-c1cccs1	i
CCOC(=O)C1=C(N)Oc2cc(O)ccc2C1c1ccc(F)cc1F (stereo not given)	1.4%
N#CC1=C(N)N2C(=C(C#N)C13CCN(Cc1ccccc1)CC3)Nc1ccccc12	i
COc1ccc(NC(=O)CN(c2ccccc2)S(=O)(=O)c2ccccc2)c(OC)c1	i
CCC(C)c1ccccc1NC(=O)C(C)Oc1ccc(Cl)cc1Cl (stereo not given)	4.7%
COc1ccc(NC(=O)C(=O)NCCN2CCN(C(=O)c3c(F)cccc3F)CC2)cc1	i
CC12CCC(C(=O)Nc3cccc([N+](=O)[O-])c3)(CC1=O)C2(C)C (stereo not given)	2.9%
COc1cccc(CNC(=S)Nc2cccc(Cl)c2C)c1	0.8%
Nc1c2c(nc3sc4c(c13)CCCC4)CCCC2	0.6µg/mL*
CCOc1ccc(C2=Cc3cc(OC)c(OC)cc3C(C(Cl)(Cl)Cl)O2)cc1 (stereo not given)	i
Cc1cc(C)n(C(=O)c2sc3cc(F)ccc3c2Cl)n1	i
CCOc1ccc(N(C(=O)CCc2ccccc2)c2nc(-c3ccc(OC)cc3)c(C)s2)cc1	0.4%
CSc1nc(-c2ccccc2)nn1C(=O)c1ccc([N+](=O)[O-])cc1	i
Cc1ccc(C(=O)Nc2c(C(=O)N3CCOCC3)cnn2-c2ccccc2)cc1	i

Sorted by number of heavy atoms (ascending): part of the list above
structure	Mtb growth
Nc1c2c(nc3sc4c(c13)CCCC4)CCCC2	0.6µg/mL*
Cc1cc(C)n(C(=O)c2sc3cc(F)ccc3c2Cl)n1	i
COc1cccc(CNC(=S)Nc2cccc(Cl)c2C)c1	0.8%
CC12CCC(C(=O)Nc3cccc([N+](=O)[O-])c3)(CC1=O)C2(C)C (stereo not given)	2.9%
CCOc1ccc(N(C(=O)CCc2ccccc2)c2nc(-c3ccc(OC)cc3)c(C)s2)cc1	0.4%

Continued.
structure	Mtb growth
CCN(C(=O)c1ccccc1N)c1c(C)n(C)n(-c2ccccc2)c1=O	0.3%
Cc1ccc(-c2cc(C(F)F)n3ncc(C(=O)NCc4cn(C)nc4C)c3n2)cc1	i
COC(=O)C1=C(C)N(c2cccc(C)c2)C(=O)C1	i
Cc1ccc(C(=O)O)cc1NC(=S)NC(=O)c1ccc(C(C)C)cc1	4.1%
COc1cc(CN2CCN(C(=O)c3cccs3)CC2)cc(OC)c1O	2.4%
O=C(COc1ccc(Cl)cc1Cl)NC(=S)Nc1ccccc1N1CCOCC1	i
CCn1c(CNC(=O)c2ccc(Cl)cc2)nnc1SCC(=O)Nc1cc(C(F)(F)F)ccc1Cl	5.5%
N#Cc1ccccc1NC(=O)CSc1ncn[nH]1	i
CSc1cccc(NC(=O)C(C)N(c2ccc(C)cc2)S(C)(=O)=O)c1 (stereo not given)	i
Cc1c(C)n(CC(O)CNC2CCCC2)c2ccccc12 (stereo not given)	0.0%
CCCn1c(-c2ccccc2)n[nH]c1=S	0.2%
O=C(NCCC1CCCCC1)C(=O)Nc1ccccc1	i
COc1ccc(C)cc1N(CC(=O)Nc1cccc([N+](=O)[O-])c1)S(=O)(=O)c1ccc(C)cc1	2.4%
Cc1ccc(-c2cc(-c3ccc(F)cc3)n[nH]2)c(O)c1	18.6%
COc1ccc(NC(=O)C(N)=O)cc1Cl	i
CCCOc1ccc(C2C(C(=O)c3ccc(C)o3)=C(O)C(=O)N2CCCn2ccnc2)cc1 (stereo not given)	i
COc1ccc(C(C)NC(=O)Nc2cccc(C(C)=O)c2)cc1 (stereo not given)	i
COc1ccc(Nc2nnc(-c3ccccc3)c3ccccc23)cc1C(=O)N1CCCCC1	6.3%
CCCOc1ccc(-c2nc(SCc3ccc(C(=O)OC)o3)n[nH]2)cc1	i
COC(=O)Cc1c(C)c2ccc(OCC(C)=O)c(C)c2oc1=O	i
O=C(CSc1nnnn1-c1ccccc1)c1ccc(Cl)c(Cl)c1	i
COc1ccc(C(=O)CC(=O)Nc2ccccc2)cc1	5.0%
CCCN1C=C(C(=O)OC)C(c2cc(Br)c(O)c(OC)c2)C(C(=O)OC)=C1	1.3%
CCOCCCNC(=O)c1cccs1	i
Cc1ccc(F)c(NC(=O)c2ccc(C)c(Cl)c2)c1	i
CCCCN1C(=O)c2ccc(C(=O)Nc3cc(C)on3)cc2C1=O	i
COC(=O)c1c(NC(=O)c2sc3ccccc3c2Cl)sc(C(C)=O)c1C	i
COc1ccc(S(=O)(=O)Nc2cc(C)ccn2)cc1OC	i
